HNF4A DNA FP – change in binding of human HNF4 alpha to DNA. P41235. HNF4a-FITC DNA binding, fluorescence polarization, 1 h. activity change, % at 10 µM. 360,000 compounds, 0.3% hits. AID 1224865; in the data active = activity change above about 30%, passing the limit was not always enough;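 note: controls were the assay level and a saturating level of protein; the project sought stronger binding though the title names inhibitors; some compounds called inactive have numbers as strong as hits; positive values seem to mean higher polarization but the record does not say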
Target sequence (P41235 whole entry, looked up): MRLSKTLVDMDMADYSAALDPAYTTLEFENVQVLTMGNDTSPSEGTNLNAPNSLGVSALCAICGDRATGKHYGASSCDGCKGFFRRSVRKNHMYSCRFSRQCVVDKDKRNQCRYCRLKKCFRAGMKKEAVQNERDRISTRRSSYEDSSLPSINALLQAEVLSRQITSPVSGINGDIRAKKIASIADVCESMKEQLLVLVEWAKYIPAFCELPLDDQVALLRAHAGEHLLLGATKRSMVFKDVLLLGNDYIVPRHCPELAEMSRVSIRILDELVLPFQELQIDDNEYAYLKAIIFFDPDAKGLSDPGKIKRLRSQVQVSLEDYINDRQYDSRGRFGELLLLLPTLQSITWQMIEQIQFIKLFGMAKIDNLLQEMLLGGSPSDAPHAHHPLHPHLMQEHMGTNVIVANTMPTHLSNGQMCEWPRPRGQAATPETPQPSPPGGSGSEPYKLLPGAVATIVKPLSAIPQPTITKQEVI
rRNA inh HTS – selective bacterial rRNA inhibition in E. coli | GFP signal change (wild-type ribosome), % (no concentration beside the values) | 350,000 compounds, 1.6% hits | E. coli WT GFP vs humanized-ribosome RFP mutants, fluorescence, 24 h; active compounds read low; DMSO median 0, no signal -100;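 active = significant combined selectivity score with lowered wild-type GFP, culture density cut under 30%, mutant RFP and density less affected; inactive = any of these conditions unmet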; note: one replicate is shown; some compounds called inactive have numbers as strong as hits
Ecoli growth – E. coli growth inhibition | Escherichia coli growth, OD600, 23 h; active compounds read low | OD600 absorbance (concentration not given with the values) | 330,000 compounds, 0.21% hits | AID 1053175;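 active = OD600 absorbance below the run mean of sample wells minus 3.6 SD, in any replicate, cut at about 0.56 in these data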;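 note: stock transfer was 300 nL into about 60 µL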
FGF22 binding – shifts melting point of recombinant human FGF22 | Q9HCT0 | recombinant FGF22 thermal shift, SYPRO orange fluorescence; percent of sucrose octasulfate shift, DMSO zero | calls only at 9.99 µM | 340,000 compounds, 1.5% hits;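 active = melting point raised past a set limit in the mean and every replicate; three in four hits are not shown here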
ALR H2O2 inh – inhibitors of human sulfhydryl oxidase ALR; P55789; purified ALR, DTT oxidation, H2O2 HRP-luminol luminescence; inhibition, % (no concentration beside the values); 290,000 compounds, 3.8% hits; AID 485317;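 active = mean and each replicate at 75% or more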;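 note: stock transfer was 7.5 nL into about 7.5 µL; 0% = neutral wells and 100% = wells with inactivated enzyme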
Target sequence (P55789 whole entry, looked up): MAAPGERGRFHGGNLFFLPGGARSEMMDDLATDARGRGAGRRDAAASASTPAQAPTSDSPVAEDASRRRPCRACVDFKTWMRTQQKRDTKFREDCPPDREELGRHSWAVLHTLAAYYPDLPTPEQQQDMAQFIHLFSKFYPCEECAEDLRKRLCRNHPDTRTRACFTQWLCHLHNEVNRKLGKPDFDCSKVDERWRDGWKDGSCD
UCH37 DUB inh – human UCH37 deubiquitinating enzyme inhibition. purified proteasome/UCH37, Ub-AMC cleavage fluorescence. 330,000 compounds, 0.33% hits. inhibition, % (no concentration beside the values). Q9Y5K5;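 active = mean of two replicates above 20%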;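 note: 0% = compound-free wells with enzyme and 100% = wells lacking proteasome; stock transfer was 100 nL into about 20 µL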
Target sequence (Q9Y5K5 whole entry, looked up): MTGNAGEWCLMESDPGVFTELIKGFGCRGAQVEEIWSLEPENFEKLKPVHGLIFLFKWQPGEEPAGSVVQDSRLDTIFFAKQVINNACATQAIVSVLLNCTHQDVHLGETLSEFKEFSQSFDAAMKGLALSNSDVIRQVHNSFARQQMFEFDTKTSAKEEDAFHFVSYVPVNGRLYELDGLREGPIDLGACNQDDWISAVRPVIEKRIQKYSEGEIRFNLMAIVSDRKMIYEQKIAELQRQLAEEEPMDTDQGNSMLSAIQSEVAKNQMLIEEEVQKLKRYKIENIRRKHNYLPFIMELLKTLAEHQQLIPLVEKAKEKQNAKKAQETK
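system = Proteasome-associated human UCH37 deubiquitinase | amount = 0.15 nM proteasome as dispensed | medium = pH 7.4 Tris-HCl (50 mM) with ovalbumin, ATP-MgCl2, DTT | incubation = 30 min preincubation with enzyme, 25 min cleavage at room temperature | detection = AMC fluorescence 355/460 nm | read-out basis = percent inhibition | controls = no-proteasome and no-compound wells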
B2AR ag – human beta-2 adrenergic receptor agonism by FAP. P07550. AID 504454. 340,000 compounds, 0.43% hits. Am2.2-beta2AR cells, FAP receptor internalization, flow cytometry; reference of the scale not given here. response, % (test concentration not listed);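 active = response above a set limit, near 3 SD of response in nonfluorescent compounds, cut at about 42% in these data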;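 note: stock transfer was 100 nL into about 11 µL; a reference agonist was the positive control; negative values mostly stem from fluorescent compounds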
rRNA inh HTS OD600 – also measured in rRNA inh HTS; calls as there; OD600 change, %; measured here: OD600 growth;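 optical density of the mix in the first replicate; 0 = DMSO median and -100 = no signal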
rRNA inh HTS RFP – recorded beside rRNA inh HTS, whose call it bears; RFP signal change, %; measured here: RFP humanized mutant strains;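 first replicate; 0 = DMSO median and -100 = no signal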
The depositor's hits bear a star; i = inactive; · = not tested or not shown; & = joins results of further samples. Only part of the results is shown; count on the stated rates, not on these rows.

SMILES	HNF4A DNA FP	rRNA inh HTS	rRNA inh HTS OD600	rRNA inh HTS RFP	Ecoli growth	FGF22 binding	ALR H2O2 inh	UCH37 DUB inh	B2AR ag
O=C1/C(=C/c2ccc([N+](=O)[O-])cc2)CCc2ccccc21	·	·	·	·	0.66	·	-6	1.8	·
O=C(O)C1(P(=O)(c2ccc(Cl)cc2)c2ccc(Cl)cc2)CCCC1	1.7	-1	2	-1.8	0.71	i	0	0.3	5
COc1ccccc1NC(=O)C(C)OC(=O)C1CCN(S(=O)(=O)c2ccccc2C(F)(F)F)CC1 (stereo not drawn)	-0.2	·	·	·	·	i	·	·	-2
CCn1c(=O)c([N+](=O)[O-])c(NC2CCS(=O)(=O)C2)c2ccccc21 (stereo not drawn)	2.7	0	1	-0.8	0.65	i	1	9.0	-1
CCOC(=O)c1c(CN2CCOCC2)n(C)c2cc(Br)c(O)c(CN(C)C)c12	-3.1&0.5	2&-12	-2&-7	8.3&-1.8	0.69&0.72	i	30&49	8.1&13	-10&-6
CCNc1ccc(S(=O)(=O)N(C)C)cc1NCC(=O)Nc1ccc(F)c(Cl)c1	2.5	·	·	·	0.68	·	32	0.5	18
CCOc1ccc(-c2n[nH]c(C)c2Oc2ccc(OC)cc2)c(O)c1	-1.2	·	·	·	0.7	·	12	1.6	8
COc1ccc2c(c1OC)C(=O)OC2N1C(=O)CC[C@H]1C(=O)Nc1ccc(F)cc1F (stereo partly drawn)	-2.5	9	-4	-7.5	0.7	i	·	4.1	0
COc1cc2ncc(C(=O)c3ccccc3)c(N3CCN(Cc4ccccc4)CC3)c2cc1OC	-2.5	-16	0	16	0.74	i	-3	3.7	7
COCC(=O)N(Cc1cc2cc(OC)ccc2[nH]c1=O)c1ccccc1OC	-18	·	·	·	0.7	·	-29	-17	3
COc1ccccc1C(CCNCc1ccc(N(C)C)cc1)c1ccc(OC(C)C)cc1 (stereo not drawn)	-2.8	-58	-83	-18	0.58	i	-5	4.1	65*
CC1CN(C(=O)c2cc(-c3ccc(Cl)s3)nc3ccccc23)CC(C)O1 (stereo not drawn)	5.1	2	0	0.6	0.67	i	-2	-361	-12

4 of the compounds above, with two lines to a compound.
Second line of a record – HNF4A DNA FP | rRNA inh HTS | rRNA inh HTS OD600 | rRNA inh HTS RFP | Ecoli growth | FGF22 binding | ALR H2O2 inh | UCH37 DUB inh | B2AR ag
COc1cc2ncc(C(=O)c3ccccc3)c(N3CCN(Cc4ccccc4)CC3)c2cc1OC
    -2.5 | -16 | 0 | 16 | 0.74 | i | -3 | 3.7 | 7
CCNc1ccc(S(=O)(=O)N(C)C)cc1NCC(=O)Nc1ccc(F)c(Cl)c1
    2.5 | · | · | · | 0.68 | · | 32 | 0.5 | 18
COc1ccccc1C(CCNCc1ccc(N(C)C)cc1)c1ccc(OC(C)C)cc1 (stereo not drawn)
    -2.8 | -58 | -83 | -18 | 0.58 | i | -5 | 4.1 | 65*
CCOC(=O)c1c(CN2CCOCC2)n(C)c2cc(Br)c(O)c(CN(C)C)c12
    -3.1&0.5 | 2&-12 | -2&-7 | 8.3&-1.8 | 0.69&0.72 | i | 30&49 | 8.1&13 | -10&-6

New compounds follow:
SMILES	HNF4A DNA FP	rRNA inh HTS	rRNA inh HTS OD600	rRNA inh HTS RFP	Ecoli growth	FGF22 binding	ALR H2O2 inh	UCH37 DUB inh	B2AR ag
Fc1ccc(C2=Nn3c(Cc4ccccc4F)nnc3SC2)cc1	2.6	·	·	·	0.71	·	-4	1.0	-9
CN1CCC[C@H]1CCNc1ccc2c(=O)c3ccccc3n(C)c2c1	6.2	-13	-15	0.5	·	i	·	·	16
COc1ccc(NC(=O)c2c(F)c(F)c(F)c(F)c2F)cc1Cl	-4.9	·	·	·	0.66	·	-4	1.6	2
COc1ccc(N=Nc2[nH]c3ccc(C)cc3c2O)cc1	-0.9	·	·	·	0.76	·	-9	5.7	-4
COc1cc(C2NC(=O)NC(C)=C2C(=O)OCC2CCCO2)cc(OC)c1OC (stereo not drawn)	1.5	13	10	3.2	0.69	i	0	0.2	-4
O=C(CC(Nc1ccc(F)cc1)c1ccccc1)c1ccccc1 (stereo not drawn)	1.7	·	·	·	0.71	·	3	4.8	-3
COc1ccc(NC(=O)c2ccc3nc(-c4ccccc4)c(-c4ccccc4)nc3c2)c(OC)c1	2.9	18	2	-1.0	0.76	i	-1	-6.7	9
CCOc1cc(CN2CCC(CO)(Cc3cccc(C(F)(F)F)c3)CC2)ccc1OC	1.8	·	·	·	0.69	i	-6	1.4	14
CSc1ncccc1C(=O)OC(C)C(=O)Nc1cccc(S(=O)(=O)N2CCOCC2)c1 (stereo not drawn)	0.8	-1	-17	-4.5	0.72	i	-1	4.2	-1
O=C(Oc1cccc(NC(=O)c2cccs2)c1)c1cccc(S(=O)(=O)N2CCCC2)c1	-1.1	·	·	·	0.7	·	12	1.5	5
CCOc1cc(/C=C/c2nc3ccccc3s2)ccc1OCC(=O)N1CCOCC1	1.6	·	·	·	0.71	·	-9	-120	30
c1ncn(C23CC4CC(CC(C4)C2)C3)n1	-0.4	·	·	·	0.67	·	-2	3.4	-6
CC(=O)Nc1ccc(Cl)cc1C1COC(=O)C1=N (stereo not drawn)	1.2	12	6	3.7	·	i	-1	·	-5
CCN1C(=O)C(C(=O)c2ccccc2)SC1=S (stereo not drawn)	3.7	·	·	·	0.65	·	36	11	3
Cc1cc(Cl)n2ncc(-c3ccccc3)c2n1	3.1	-33*	-11*	-7.9*	0.58	i	68	2.1	38
Cc1cc(Nc2ccccc2F)n2ncnc2n1	-0.3	11	19	5.1	0.68	i	-4	2.1	-3
CCc1ccc(CN2CCC(n3nccc3NC(=O)Cc3ccccc3)CC2)o1	0.8	-1	0	-3.8	0.72	i	-19	0.5	-11
Cc1cc(C)n(-c2nc3nonc3nc2-n2nc(C)cc2C)n1	0.9	·	·	·	0.72	·	-35	3.5	-3
O=C(Cc1ccc(S(=O)(=O)N2CCCCC2)s1)Nc1cccc2ccccc12	-2.2	·	·	·	·	·	-42	4.1	-5
COc1ccc(CNC(=O)C2CCN(S(=O)(=O)c3cccc4nsnc34)CC2)cc1	-3.3	1	10	0.3	0.69	i	-10	4.2	4
O=C(CSc1nnc(-c2cccnc2)o1)Nc1ccc(Br)cc1	-0.1	-4	-14	0.2	0.68	i	·	1.9	-5
COCCN(CC1CCCN(C2Cc3ccccc3C2)C1)C(=O)CCC(N)=O (stereo not drawn)	1.4	0	1	0.5	0.66	i	·	-0.8	42
O=C(NCCc1c[nH]c2ccccc12)Nc1cccc2ccccc12	-3.1	·	·	·	0.71	·	-5	-2.6	-2
O=c1cc(Cc2nnc(SCc3ccccc3)n2-c2ccc(Cl)cc2)[nH]c(=O)[nH]1	2.0	4	-11	-1.3	0.7	i	6	4.1	-4
CCOCCCNC(=O)NC12CC3CC(CC(C3)C1)C2	-1.1	-4	-7	-9.3	0.65	i	-11	0.5	-6
Cc1ccc(C2(c3ccccc3)NC(=O)N(CC(=O)NC3CCS(=O)(=O)C3)C2=O)cc1C (stereo not drawn)	-1.2	-2	-6	-0.9	0.71	i	-5	6.1	6
CCN(CCC(=O)Nc1ccc(Br)c(C)c1)Cc1ccccc1	4.0	·	·	·	0.69	·	-18	5.2	3
CCC1CN(C(=O)N2CCC(C(=O)NCc3ccco3)CC2)c2cc(C)ccc2O1 (stereo not drawn)	2.6	-5	-11	0.5	0.69	i	5	1.4	4
CC(OC(=O)CCC1CCCC1)C(=O)Nc1ccccc1[N+](=O)[O-] (stereo not drawn)	0.8	-11	-4	0.8	0.7	i	5	2.5	-5
O=C(C1COc2ccccc2O1)N1CCN(Cc2ccc3c(c2)OCO3)CC1 (stereo not drawn)	-0.9	·	·	·	0.69	·	·	-2.2	-3
CCCCc1c(C(=O)O)cc(OC)cc1C(=O)O	1.4	·	·	·	0.7	·	0	0.5	-8
Cc1cccc(S(=O)(=O)Nc2nc3ccccc3nc2NCC2CCCO2)c1 (stereo not drawn)	0.1	-6	-8	-3.1	0.69	i	34	-51	-14
CCOC(=O)C1(Cc2ccc(OC)cc2)CCN(C(=O)c2ccoc2C)CC1	2.3	-5	1	-1.9	0.68	i	-4	2.2	6
Cc1nc(C)c(C(=O)NCc2ccc(Cl)cc2)o1	5.2	12	9	-9.8	0.68	i	-9	5.5	7
CCN(CC)S(=O)(=O)c1ccc2[nH]cc(C(=O)NCCCN3CCCCC3)c(=O)c2c1	2.6	3	9	4.3	0.69	i	-2	1.1	2
Cc1ccc(NS(=O)(=O)c2cccc3nsnc23)cc1	-2.2	-7	-2	-1.1	0.69	i	0	5.4	1
Cc1cccc(C)c1NC(=O)CC(C)c1ccccc1 (stereo not drawn)	-3.3	4	-4	2.4	0.65	i	-2	3.8	2
COc1ccc(-c2cc(C(=O)N(C)Cc3ccccc3F)c3ccccc3n2)cc1OC	-2.1	-4	-14	6.6	0.69	i	-4	-130	11
CC(=O)N1CCc2cc(S(=O)(=O)NC(C(=O)N3CCN(c4ccccc4F)CC3)C(C)C)ccc21 (stereo not drawn)	3.2	-2	-1	0.4	0.73	i	3	5.6	-3
Cc1ccc(C(=O)NNC(=O)c2ccccc2)cc1S(=O)(=O)N1CCCCC1	1.6	-1	6	-2.1	0.69	i	-9	0.4	-2
CCc1cc(C(=O)NNC(=S)Nc2ccccc2C)cs1	0.7	·	·	·	0.67	·	25	6.2	-2
NS(=O)(=O)c1ccc(CCNC(=O)c2ccc(Cl)nc2)cc1	2.5	6	13	0.9	0.68	i	·	-0.5	3
COc1ccc(C)cc1S(=O)(=O)Nc1cccc(C)c1	-2.4	16	18	3.5	0.68	i	0	2.1	6
C#CCOc1ccc(C2C3=C(CC(C)(C)CC3=O)N(CC(=O)O)C3=C2C(=O)CC(C)(C)C3)cc1OC	-7.3	11	-2	-0.2	0.69	i	-5	-16	0
CCOC(=O)c1sc(NC(=O)CN2CCCC2)c(C(=O)OCC)c1C	-1.4	·	·	·	0.71	·	-1	2.3	-2
CCOC(=O)C1CCN(S(=O)(=O)c2ccc(Cl)nc2)CC1	-4.9	1	-1	-1.8	0.69	i	-2	-1.7	1
COCCCN1CCN(C2Cc3ccccc3Sc3ccc(Cl)cc32)CC1 (stereo not drawn)	2.2	·	·	·	0.64	·	-5	2.2	15
COc1ccc(C(=O)NCC(=O)OCC(=O)Nc2c(C)n(C)n(-c3ccccc3)c2=O)cc1	3.1	·	·	·	0.68	·	-30	-0.3	-2
COc1cccc(/C(C)=N/NC(=O)c2cc(-c3cccnc3)nc3ccccc23)c1	2.3	11	-2	7.4	·	·	·	·	-12
CCOc1cc(N2CCOCC2)c(OCC)cc1NC(=O)COC(=O)CCc1c[nH]c2ccccc12	-0.3	·	·	·	0.74	·	3	-0.2	7
O=C(NCCC1=CCCCC1)C1CCN(S(=O)(=O)c2cccc3nsnc23)CC1	4.5	·	·	·	0.74	·	1	8.6	1
COc1ccccc1NC(=S)NC(NC(=O)C(C)C)C(Cl)(Cl)Cl (stereo not drawn)	2.4	5	7	-0.6	0.66	i	0	0.8	11
Cc1ccc(S(=O)(=O)N(c2ccccc2)C2CCS(=O)(=O)C2)cc1 (stereo not drawn)	-1.1	·	·	·	0.71	·	-6	0.7	-3
COc1ccccc1N1CCN(C(=O)c2cc(-c3ccc(Cl)cc3)on2)CC1	0.2	·	·	·	0.73	·	2	3.7	-9
Cc1nnc(SCC(=O)Nc2ncc(Cl)cc2Cl)n1Cc1ccccc1	2.1	·	·	·	0.73	·	-6	2.0	-6
Cc1ccccc1NC(=O)CN1C(=O)N/C(=C\c2cccn2-c2cccc(C(=O)O)c2)C1=O	-42	10	7	1.6	·	i	21	·	-3

Compound activity deposited in PubChem by several laboratories.
